Screening results as filed in PubChem BioAssay.
Rango release inh: qHTS Assay for Inhibitors of RanGTP induced Rango (Ran-regulated importin-beta cargo) - Importin beta complex dissociation. Snurportin-1 (Homo sapiens) + GTP-binding nuclear protein Ran (Homo sapiens) + Importin …. Biochemical FRET Rango-importin beta, RanGTP-induced dissociation. Potency, µM (highest dose often 46.1 µM), inactives show at the top dose activity change, negative = inhibition. actives 0.071% (n = 340,000). AID 540253, 2011; active means falling FRET ratio curve, often poorly fitted, with flat reads before Ran was added; inconclusive means other falling curves, or compound fluorescence or quenching; inactive means flat or rising ratio curve;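 also: potency is read from the fitted curve at half-maximal effect; % of control where 0% means no effect; nearly all actives have a fitted effect of over 45% in size; -100% = wells without RanGTP and RCC1; the record marks most hits as doubtful in a second field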
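Rango/importin beta premix (0.1/0.25 uM final), PBS + 1 mM DTT + 0.02% Tween-20 + 0.1% BSA; cpd 5 min RT; FRET pre-read; + RanGTP-RCC1 (0.6 uM Ran, 2 mM GTP, 0.2 uM RCC1); 45 min RT; FRET post-read, ex 430, em 486/530 nm.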
miR-21 reporter: qHTS Assay for Modulators of miRNAs and/orActivators of miR-21; Potency, µM (highest dose often 38.3 µM), for the others: at the top dose reporter change, positive = more light; HeLa miR-21 FLuc reporter, luciferase, 48 h; 340,000 tested, under 10 active; active = well fitted rising curve with a large enough effect; inconclusive = small, poorly fitted or top-dose-only effect; inactive = no such curve, though single readings can be large or run the other way;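 also: % of control where 0% means no effect; miR-21 action dims this reporter so a rising signal means less miR-21 action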
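HeLa cells endogenously expressing miR-21, stably carrying CMV-driven firefly luciferase with a downstream miR-21 binding site, 2000 cells/well. Titrations up to approximately 40 uM, 48 hours; luciferase luminescence read.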
GLA inh pH 4.5: qHTS Assay for Inhibitors of Human alpha-Galactosidase at pH 4.5 | Alpha-galactosidase A (Homo sapiens), P06280 | activity change, negative = inhibition, % at 105 µM | purified enzyme, 4-MU-alpha-Gal fluorescence, pH 4.5 | 230,000 tested, under 10 active; inconclusive = small, poorly fitted or top-dose-only inhibition, or a rising curve; inactive = flat fitted curve, though single readings scatter; no compound was filed as active;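 also: 0% = full activity with enzyme and -100% = basal without enzyme; dose as in the result columns while the protocol names 77 µM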
Rango-impB inh: qHTS Assay for Inhibitors of Rango (Ran-regulated importin-beta cargo) - Importin beta complex formation. Potency, µM (doses to about 92.2 µM), for the others: at the highest dose inhibition of complex formation. AID 540263, 2011. Importin subunit beta-1 (Homo sapiens), Q14974. Rango CFP/YFP FRET sensor + importin beta, 45 min. actives 0.031% (n = 340,000); active = rising FRET ratio curve, often small or poorly fitted; inconclusive = mostly compound fluorescence or quenching in the first reads; inactive = flat curves in all reads;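 also: potency is read from the fitted curve at half-maximal effect; 0% = DMSO wells and 100% = buffer wells lacking importin beta; nearly all actives have a fitted effect of over 15% in size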
Target sequence (Q14974 whole entry, looked up): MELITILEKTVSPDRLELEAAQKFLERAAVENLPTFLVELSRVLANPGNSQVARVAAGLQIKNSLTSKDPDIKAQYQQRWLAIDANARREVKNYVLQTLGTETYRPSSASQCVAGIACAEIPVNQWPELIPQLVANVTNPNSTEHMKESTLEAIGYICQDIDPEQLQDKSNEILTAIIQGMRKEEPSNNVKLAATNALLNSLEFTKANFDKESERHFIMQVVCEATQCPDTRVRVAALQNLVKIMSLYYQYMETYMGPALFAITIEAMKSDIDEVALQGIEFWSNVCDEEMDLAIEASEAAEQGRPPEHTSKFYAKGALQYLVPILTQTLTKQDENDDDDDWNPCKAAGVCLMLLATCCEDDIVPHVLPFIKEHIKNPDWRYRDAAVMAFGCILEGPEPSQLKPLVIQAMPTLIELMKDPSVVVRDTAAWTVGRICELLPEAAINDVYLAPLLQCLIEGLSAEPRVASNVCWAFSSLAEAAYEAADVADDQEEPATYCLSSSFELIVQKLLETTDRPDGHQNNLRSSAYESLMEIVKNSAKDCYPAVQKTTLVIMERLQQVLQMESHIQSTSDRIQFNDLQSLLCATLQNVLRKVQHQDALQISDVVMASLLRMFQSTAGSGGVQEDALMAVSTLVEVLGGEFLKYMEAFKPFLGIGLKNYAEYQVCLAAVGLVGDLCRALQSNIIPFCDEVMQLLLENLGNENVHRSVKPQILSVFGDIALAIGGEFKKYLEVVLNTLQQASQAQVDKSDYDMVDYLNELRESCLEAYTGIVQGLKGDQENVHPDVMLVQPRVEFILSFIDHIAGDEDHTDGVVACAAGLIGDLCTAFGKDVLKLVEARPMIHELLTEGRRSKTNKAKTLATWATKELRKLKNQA
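Inhibition scored from the CFP 486 nm/YFP 530 nm FRET ratio 45 min after adding 0.125 microM importin beta to 50 nM Rango biosensor preincubated 5 min with compound (room temperature, PBS with DTT, Tween-20, BSA). No-importin wells as positive control.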
Starred values were filed as active, the others as inactive; ? = inconclusive; . = not tested or not shown. Some of the compounds tested (hit frequency here may not be typical).

Start of the data: the first two entries as a preview:
SMILES	Rango release inh	miR-21 reporter	GLA inh pH 4.5	Rango-impB inh
CCCCC(=O)NS(=O)(=O)c1ccc(N=NN2CCOCC2)cc1	-13.5%	-3.1%	-8.3	2.6%
CCCC(=O)Nc1cc(C)c2c(=O)oc3ccccc3c2n1	-9.7%	7.8%	5.2	-2.3%

The list itself (from the top)
SMILES	Rango release inh	miR-21 reporter	GLA inh pH 4.5	Rango-impB inh
CCCCC(=O)NS(=O)(=O)c1ccc(N=NN2CCOCC2)cc1	-13.5%	-3.1%	-8.3	2.6%
CCCC(=O)Nc1cc(C)c2c(=O)oc3ccccc3c2n1	-9.7%	7.8%	5.2	-2.3%
CCC(C)NC(=O)CC(c1ccc(OC)cc1)n1cccc1 (stereo not given)	2.6%	-3.0%	3.5	0.3%
COc1cc(OC)cc(C(=O)NCC(=O)N2CCCCCCC2)c1	6.0%	.	.	-4.5%
COc1ccc(CN2CCNC(=O)C2CC(=O)NC2CCCCCCC2)cc1C (stereo not given)	3.8%	-8.1%	.	-2.8%
COC(=O)C(c1ccccc1)N(Cc1cccc(CN(C(C(=O)OC)c2ccccc2)S(C)(=O)=O)c1)S(C)(=O)=O (stereo not given)	0.9%	10.2%	.	-4.0%
CC(=O)Nc1ccc(SC(C)C(=O)NC(N)=O)cc1 (stereo not given)	-3.3%	-3.3%	1.4	-1.4%
CC(C)(C)C(=O)C[n+]1ccc(C(N)=O)cc1	-14.8%	-8.6%	-11.7	-2.9%
CCOc1ccc(C2NC(=O)NC(c3ccccc3)=C2C(C)=O)cc1OC (stereo not given)	-0.3%	-2.8%	.	9.6%
CC(C)CN(C(=O)CCC(=O)OCC(=O)c1ccc(F)c(F)c1)c1c(N)n(CC(C)C)c(=O)[nH]c1=O	7.5%	-3.2%	.	-2.8%
Cc1ccc(CSc2nnc(SCC(=O)N/N=C/c3c[nH]c4ccccc34)s2)cc1	1.6%	7.8%	7.5	-1.0%
COc1cc(C(=O)NC(C)C2CC3CCC2C3)cc(OC)c1OC (stereo not given)	19.0%	8.2%	.	-2.0%
CC1(c2nnc(-c3ccccc3)o2)CC(c2ccc(Cl)cc2)=NO1 (stereo not given)	-5.3%	-3.9%	-5.9	3.7%
O=C(Cc1csc(-c2ccc(F)cc2)n1)Nc1cccc(S(=O)(=O)NC2=NCCC2)c1	-10.8%	.	.	0.1%
CO/N=C\CC(=O)Nc1ccc(Oc2ccccc2)cc1	-2.1%	14.7%	2.7	0.1%
CN(CC(=O)Nc1ccc(N2CCOCC2)cc1)C(=O)c1cccc(Cl)c1Cl	-5.4%	.	.	-0.8%
O=C(O)CCC(=O)N1CCN(c2nc(-c3ccccc3)c3ccccc3n2)CC1	?	-9.1%	.	?
COc1ccc(CCNC(=O)Cc2ccc(OCc3ccccc3)c(OC)c2[N+](=O)[O-])cc1OCc1ccccc1	-10.3%	21.9%	-5.8	2.9%
Cc1nc2c(=O)[nH]c3ccccc3c2o1	11.6%	4.2%	6.4	2.2%
COc1cccc(OCC(=O)NNC(=O)C(=O)N2CCCC2)c1	46.7%	-1.9%	-0.5	-2.3%

Quoted from the listing:
CO/N=C\CC(=O)Nc1ccc(Oc2ccccc2)cc1 in miR-21 reporter → 14.7%
COc1cc(C(=O)NC(C)C2CC3CCC2C3)cc(OC)c1OC (stereo not given) in Rango release inh → 19.0%

Next part.
SMILES	Rango release inh	miR-21 reporter	GLA inh pH 4.5	Rango-impB inh
C=CCNC(=O)c1ccc2c3n(nc2c1)-c1ccc(Cl)cc1CO3	-8.3%	.	.	?
CCOC(=O)c1nc2ccccc2c(=O)[nH]1	0.8%	-50.7%	-3.9	-0.5%
O/N=C/c1cn(-c2ccccc2)nc1-c1cccnc1	0.3%	-6.0%	-2.4	-2.2%
CC(C)CCNC(=O)C1CCC(CNS(=O)(=O)c2ccc(Cl)cc2)CC1 (stereo not given)	1.0%	0.8%	.	0.3%
CCCC(C(=O)NCc1ccco1)N(C(=O)CNS(=O)(=O)c1ccccc1)C1CCCC1 (stereo not given)	-9.8%	-0.2%	2.8	4.1%
CN(C)C(=O)COc1ccc(S(=O)(=O)c2ccc(OCC(=O)N(C)C)cc2)cc1	5.3%	0.6%	.	-2.3%
CCCCCC(=O)Nc1ccccc1N1CCN(c2ccccc2)CC1	5.7%	0.2%	-16.4	-1.3%
CC(C)n1c(S(=O)(=O)O)nc2ccccc21	-0.1%	-2.9%	5.6	-4.5%
CS(=O)(=O)NCc1nnc(SCC(=O)NC2CCCCC2)n1-c1ccc(F)cc1	-5.6%	-3.2%	-0.8	-0.5%
Cc1cccc(OC2CCN(Cc3c(C(=O)N4CCCC4)nc4ccccn34)CC2)c1	-11.7%	4.5%	-10.1	0.3%
O=C(Nc1nc2c(F)cc(F)cc2s1)C1COc2ccccc2O1 (stereo not given)	-0.4%	-38.7%	2.1	-2.1%
Nc1nnc(SCC(=O)N2CCc3ccccc3C2)s1	-20.3%	-11.7%	10.7	1.5%
O=C(Nc1cccc(-c2nn[nH]n2)c1)c1ccc(Br)s1	6.0%	3.0%	.	5.8%
CCN(CC)c1ccc(C2C(C(=O)OCCOC(C)C)=C(C)NC3=C2C(=O)CCC3)cc1 (stereo not given)	-12.9%	-3.3%	-7.2	-4.1%
Cc1cc(S(N)(=O)=O)c(N)c(S(N)(=O)=O)c1	5.0%	0.6%	-5.9	1.0%
CN(C)S(=O)(=O)c1ccc(NC(=O)CN2CCCc3ccccc32)cc1	2.5%	-10.4%	?	4.1%
CCOC(=O)CSc1nc2nc(C)cc(C)n2n1	9.4%	-0.2%	-5.3	-3.2%
Cn1c(=O)c2nc(SCCO)n(C)c2n(C)c1=O	-9.1%	.	.	-0.2%
CCC1C2CN(C(C)=O)CC=C2C(C#N)=C(N)C1(C#N)C#N (stereo not given)	?	-0.8%	1.3	?
CS(=O)(=O)c1ccc(-c2csc(-c3cccnc3)n2)cc1	4.0%	-34.6%	.	1.9%
COc1ccc(CC(=O)N2CCN(S(=O)(=O)c3cc(Cl)ccc3Cl)CC2)cc1	-11.6%	.	.	7.5%
N#CCCn1cc(/C=N/O)c(-c2cccc([N+](=O)[O-])c2)n1	2.7%	-2.8%	?	1.2%
Cc1ccc(NC(=O)c2ccco2)c(NC(=O)CN2C(=O)c3ccccc3C2=O)c1	23.8%	-2.8%	-2.3	2.1%
C[C@]12C=CC(=O)C=C1CC[C@@H]1[C@@H]2[C@@H](O)C[C@@]2(C)[C@H]1CC[C@]2(O)C(=O)COC(=O)CCC(=O)NCCc1ccc(O)cc1	4.3%	-38.0%	.	4.3%
O=C(COC(=O)c1ncc(Cl)c(Cl)c1Cl)Nc1ccc(Cl)cn1	-14.7%	.	.	?
O=C(CSc1nnc(NC(=O)c2ccc(F)cc2)s1)NC1CC1	-9.9%	-18.0%	.	2.5%
Cc1ccc(NS(=O)(=O)c2sc3ccc(Cl)cc3c2C)cc1	4.6%	1.2%	3.2	-2.1%
O=C(O)c1ccc(NS(=O)(=O)c2ccc(Cl)cc2)cc1	-27.3%	-4.7%	7.1	?
Cc1cc(C(=O)Cn2cc(C(F)(F)F)ccc2=O)c(C)n1CC1CCCO1 (stereo not given)	16.2%	.	.	-1.5%
O=C(c1cccc(F)c1)N1CCC(c2nc3ccccc3s2)CC1	3.8%	0.3%	-1.6	2.9%
CCN1CCCC1CNC1=NCCCCC1 (stereo not given)	30.9%	-1.3%	-4.2	-1.6%
O=C(CNC(=O)c1nc[nH]c1C(=O)N1CCNCC1)OCc1ccccc1	7.8%	.	.	-0.8%
CN(CC(=O)Nc1c(Cl)cccc1Cl)C(=O)c1ccc(NS(=O)(=O)c2ccc3[nH]c(=O)[nH]c3c2)cc1	4.5%	.	.	-0.8%
O=C1c2cccnc2C(=O)N1CO	14.0%	-0.6%	-13.1	5.6%
CCc1nnc2n1N=C(c1ccc(Br)cc1)CS2	4.5%	-0.2%	.	-0.2%
O=C1C(=O)N(CC2COc3ccccc3O2)c2ccccc21 (stereo not given)	-12.5%	7.2%	.	0.6%
O=C(OCc1c(F)cccc1Cl)c1cccnc1Cl	14.1%	11.1%	.	-4.7%
COc1cc2nc(-c3cccs3)oc(=O)c2cc1OC	-26.2%	.	.	-3.2%
Cc1ccc(-c2nn(-c3ccccc3)c3[nH]c(=O)c(CNCc4ccccc4)cc23)cc1	0.7%	-10.5%	-7.1	0.2%
CCCCNC(=O)CSc1nc(O)cc(=O)n1C1CCCC1	7.5%	4.3%	7.7	0.5%
c1ccc(CCNc2ncnc3c2cnn3-c2ccccc2)cc1	-0.1%	-55.8%	-3.0	-2.5%
CCOC(=O)C1NN=C(C(=O)c2ccc(C)cc2)C1c1ccc(C)cc1 (stereo not given)	-15.8%	-14.6%	-2.0	?
Oc1ccccc1/C=N/n1c(-c2ccccc2)n[nH]c1=S	?	-3.1%	.	?
C#CCOCCOCCOCCNc1nc(N2CCN(C(=O)C([C@@H](C)CC)n3cc(C(N)COC(=O)C(F)(F)F)nn3)CC2)nc(N2CCN(C(=O)[C@H](CCC(=O)O)n3cc(C(N)CC(C)C)nn3)CC2)n1 (stereo not given in full)	2.0%	.	.	2.3%
CCN(CC(=O)NCc1ccc(Cl)cc1)C(=O)NCc1ccc(Cl)cc1	1.2%	0.9%	.	1.4%
CCOC(=O)CN1C(=O)CC(c2ccccc2)C1=O (stereo not given)	-2.9%	-0.4%	.	-2.7%
Oc1c(Br)cc(/C=N/NC(=S)NCc2ccco2)cc1Br	4.0%	-2.5%	2.5	?
CC(=O)Nc1ccc(-c2cc(-c3ccc(NC(C)=O)cc3)nc(-c3ccccc3)n2)cc1	-21.6%	-1.5%	-2.6	?
CCCCCCCc1c(C)nc(N2CCOCC2)[nH]c1=O	-2.5%	2.9%	5.1	-0.1%
Cc1nn2c3c(cnc2c1-c1ccccc1)C(=O)CC(c1ccco1)C3 (stereo not given)	-14.9%	-6.3%	-1.1	?
O=C(Nc1nc(-c2ccccc2)c(-c2ccccc2)o1)c1ccc(F)cc1	13.3%	23.9%	-23.0	0.8%
COc1ccc(C2CC(c3ccc(F)cc3)Nc3nc(N)nn32)cc1OC (stereo not given)	7.8%	-15.6%	-2.9	0.2%
CS(=O)(=O)N1CCN(c2ccccc2NC(=S)NC(=O)c2ccccc2[N+](=O)[O-])CC1	2.5%	1.0%	1.9	2.1%
CC(=O)c1ccc(N2CCN(C(=O)Cc3n[nH]c(=O)c4ccccc34)CC2)cc1	15.3%	0.5%	-17.9	?
O=C(OC1CCOC1=O)c1cc(-c2cccc(Br)c2)nc2ccccc12 (stereo not given)	14.3%	-4.1%	-12.1	-14.5%
COc1cccc(-c2nc(CCl)cs2)c1OC	-19.6%	-30.4%	-4.1	0.7%
O=C(Nc1cnn(C23CC4CC(CC(C4)C2)C3)c1)c1cnn2cccnc12	-13.0%	-59.2%	2.7	4.4%
C[C@@]12CCC=C[C@H]1[C@H](c1ccoc1)N(Cc1ccccc1)C2=O	12.7%	-4.2%	-8.0	-2.4%
Cc1cc(C)nc(N2CCN(C(=O)CCC(=O)Nc3nnc(C(C)C)s3)CC2)n1	-11.6%	-4.2%	-0.7	-3.1%
S=C1NC[C@H](Cc2ccccc2)N1CCCCC1CCCCC1	4.8%	-6.5%	-3.4	3.9%
Further structures
SMILES	Rango release inh	miR-21 reporter	GLA inh pH 4.5	Rango-impB inh
O=C(NC(=S)Nc1ccccc1O)c1cncc(Br)c1	-13.9%	.	.	0.4%
CC(=O)Nc1c2c(nn1-c1ccc(Cl)cc1)CSC2	8.2%	1.9%	.	3.4%
O=C(NCc1cccc(C(F)(F)F)c1)C1CC(c2ccccc2[N+](=O)[O-])=NO1 (stereo not given)	6.8%	8.5%	-12.8	-0.2%
COC(=O)Nc1ccc(Oc2ccccc2)cc1	2.4%	-36.1%	0.6	-1.4%
CN(CC(=O)NCCc1ccc(S(N)(=O)=O)cc1)S(=O)(=O)c1ccc(Br)s1	0.6%	0.4%	.	5.2%
